Ba CapD inh: inhibitors of Bacillus anthracis CapD enzyme; purified CapD enzyme, fluorescence intensity read-out; hits give low values; some hits fall short of the stated cut; z-score (no concentration beside the values); 140,000 tested, 0.23% active;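 active = z-score under -4 in either of two replicates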;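 also: stock transfer was 100 nL into about 40 µL; score is relative to mean and spread of the plate; one replicate is shown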
AID504770: growth inhibitors of E. coli YBA685 in a screen for V. cholerae RctB (chromosome II replication) inhibitors. z-score (concentration not given with the values). AID 504770. 130,000 tested, 0.27% active. E. coli YBA685 rctB-dependent plasmid, OD600 growth, 3 h; hits give low values;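 active = z-score under -2 on both plates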;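 also: wells of about 30 µL received 100 nL stock; score is relative to mean and SD of the test wells; the first replicate is given; strong numbers were not always called active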
An asterisk follows results filed as active.

Results for COC(=O)c1c(NC(=O)C2CC2)sc(C)c1C ?
Ba CapD inh: 11; AID504770: -0.45

Results for O=C(c1ccccc1F)N(NC(=O)C(O)(c1ccccc1)c1ccccc1)c1ccccc1 ?
Ba CapD inh: -0.24

How did O=C(O)/C=C/C(=O)N1CCC(C(=O)c2ccc(F)cc2)CC1 do in these assays?
AID504770: -0.1

What do the screens show for `Cc1cccc(NCC(=O)Nc2ccc3c(c2)oc(=O)n3C)c1`?
Ba CapD inh: 0.21; AID504770: -0.7

What do the screens show for `CCOc1cc(C2NC(=O)N(C)C(C)=C2C(=O)OCCc2ccccc2)ccc1O` (configuration not stated)?
Ba CapD inh: -0.49

Results for O=C(CCN1C(=O)/C(=C/c2cccs2)SC1=S)N(CCO)Cc1ccccc1 ?
Ba CapD inh: -0.07

Results for O=C1c2sc3nc4n(c(=O)c3c2CCC1Sc1ccccc1)CCCCC4 (configuration not stated) ?
Ba CapD inh: 0.02; AID504770: -0.65

How did CC(=O)Nc1ccc(-c2cn3ccccc3n2)cc1 do in these assays?
Ba CapD inh: 65; AID504770: -0.85

How did CCN1CCN(CCNC(=O)Nc2ccccc2C)CC1 do in these assays?
Ba CapD inh: -0.88; AID504770: 1.8

Results for CC1(CC(=O)Nc2ccccc2)NC(=S)N(c2ccccc2)N1 (configuration not stated) ?
Ba CapD inh: 0.27; AID504770: 0

Results for CC1CCN(C(=O)COc2ccccc2C#N)CC1 ?
Ba CapD inh: 0.035; AID504770: -0.15

How did CCOc1ccsc1C(=O)Nc1ccc(Cl)cc1 do in these assays?
Ba CapD inh: 1.1; AID504770: 1.5

What do the screens show for `N#Cc1c(-c2cccc3ccccc23)c(C#N)c2nc3ccccc3n2c1N`?
Ba CapD inh: 11

Results for O=C(Nc1nnc2n1CCCS2)c1ccccc1 ?
AID504770: -1.1

How did CC(=O)n1c(O)c(C2=NC(=S)NC2=O)c2ccccc21 do in these assays?
Ba CapD inh: -0.1; AID504770: 0.5

What do the screens show for `C=CCc1c(C)nc(SC)nc1Nc1ccc(OC)cc1`?
AID504770: 0.2

What do the screens show for `COC(=O)c1cc2sccc2n1C(C)C(=O)N1CCCc2ccccc21` (configuration not stated)?
Ba CapD inh: 0.39; AID504770: -0.7

How did CCCOC(=O)CC1C(=O)NCCN1C(=S)NC(=O)Cc1ccc(Cl)cc1 (configuration not stated) do in these assays?
AID504770: -0.85

How did COc1ccc(-c2nnc(SCC(=O)N/N=C/c3ccco3)n2-c2ccccc2)cc1OC do in these assays?
Ba CapD inh: -0.09; AID504770: -1.1

How did CC(C)OC(=O)c1sc2nc3c(cc2c1N)CN(C(C)C)CC3 do in these assays?
Ba CapD inh: -0.26; AID504770: 0.3

Results for CCn1c(=O)c(C(=O)CSc2nnnn2C2CC2)c(N)n(Cc2ccccc2)c1=O ?
AID504770: 2

Results for CCC(C)c1ccccc1NC(=O)C(C)NC(C)=O (configuration not stated) ?
AID504770: 1.3

What do the screens show for `CCCC1=Nc2cc(C(=O)NCCN3CCN(CC)CC3)ccc2Sc2ccccc21`?
Ba CapD inh: -0.67; AID504770: 1.4

What do the screens show for `Cc1nc2c(c(C)c1CCC(=O)Nc1ccc(OC(F)(F)F)cc1)c(=O)n(C)c(=O)n2C`?
Ba CapD inh: 0.49; AID504770: 0.65

Results for Cc1cc(=O)n2c(n1)-c1ccccc1C2 ?
AID504770: 1

Results for O=C(O)Cn1c(-c2ccc(Br)cc2)nc(=S)c2c1CCCC2 ?
Ba CapD inh: -0.52; AID504770: 1.1

Results for CN(C)C(=O)CSCc1c(Cl)cccc1Cl ?
AID504770: 0.4

How did C/C(=N/N1CCN(c2ccccc2)CC1)c1ccccc1 do in these assays?
Ba CapD inh: 0.07; AID504770: -0.7

Results for Clc1ccc(-c2noc(CN3CCCC3)n2)cc1 ?
Ba CapD inh: -0.58; AID504770: -0.25

How did COc1ccc(CC(=O)N2CCc3ccccc32)cc1OC do in these assays?
AID504770: 0.05

What do the screens show for `CC1CC2(C)Oc3ccccc3C3OCC1CC32` (configuration not stated)?
Ba CapD inh: 0.085; AID504770: 0.3

What do the screens show for `Cc1cccc(-n2c(CNC(=O)c3ccc(S(=O)(=O)N4CCCC4)cc3)nnc2SCC(=O)Nc2nccs2)c1`?
Ba CapD inh: -0.53

Results for Cc1ccc(OCC(=O)OCC(=O)Nc2ncc(Cl)cc2Cl)cc1C ?
AID504770: -0.25

How did COc1ccccc1NC(=O)COc1ccccc1 do in these assays?
Ba CapD inh: -1.5

Results for CC(NC(=O)/C=C/c1ccc2c(c1)OCO2)c1ccccc1 (configuration not stated) ?
Ba CapD inh: -0.59; AID504770: -1.1

Results for Cc1sc(NC(=O)C(Cc2ccccc2)Cc2ccccc2)c(C#N)c1C ?
Ba CapD inh: -0.42; AID504770: -0.25

What do the screens show for `CC(O)c1nc2ccccc2s1` (configuration not stated)?
AID504770: -0.55

Results for Cc1sc(-c2ccc(Cl)cc2)nc1CC(=O)NCCOc1ccccc1 ?
Ba CapD inh: 11

Results for CCOc1ccc2c(c1)C(=C1SC(C(=O)OC)=C(C(=O)OC)S1)C(=S)C(C)(C)N2C(=O)CN1C(=O)c2ccccc2C1=O ?
Ba CapD inh: 1.5

What do the screens show for `O=c1oc(-c2cccs2)nc2sc3c(c12)CCCCC3`?
Ba CapD inh: 0.01

How did COc1ccc(-c2cc(C(F)(F)F)n3ncc(C(=O)Nc4cc(Cl)ccc4O)c3n2)cc1OC do in these assays?
Ba CapD inh: 0.48

Results for Cc1ccc(C(=O)CSc2nc(C)cc(=O)[nH]2)cc1 ?
Ba CapD inh: -0.41; AID504770: -1.4

How did CCCCn1c(=O)[nH]c2nc3cc(N(C)C)ccc3nc2c1=O do in these assays?
Ba CapD inh: -0.77; AID504770: 2

How did CC(=NCCc1ccccc1)C1=C(O)C(c2ccccc2)OC1=O (configuration not stated) do in these assays?
Ba CapD inh: -0.41; AID504770: -1.2

How did O=C(Cn1c(=O)n(CC(=O)NC2CCCC2)c(=O)c2ccccc21)Nc1ccc(F)cc1 do in these assays?
Ba CapD inh: -0.18; AID504770: 0.9

How did COC(=O)C(NC(=O)c1ccc(OC)cc1)(Nc1sc2c(c1C#N)CCC(C(C)(C)C)C2)C(F)(F)F (configuration not stated) do in these assays?
Ba CapD inh: 0.03

Results for COc1ccc(C2SCC(C(=O)NC3CCCCCC3)N2C(=O)Nc2ccc(C)c(C)c2)cc1 (configuration not stated) ?
Ba CapD inh: 16; AID504770: 0.2

What do the screens show for `CC(O)c1nc2ccccc2n1C/C=C/c1ccccc1` (configuration not stated)?
Ba CapD inh: 0.035; AID504770: 0.05

How did CN(C)S(=O)(=O)c1ccc(-c2csc(-c3cccnc3)n2)cc1 do in these assays?
Ba CapD inh: 1.2; AID504770: -0.55

Results for Cc1ccc(-c2nc(-c3ccccn3)no2)c(Cl)c1 ?
Ba CapD inh: 0.52; AID504770: -0.6

Results for Fc1ccc(-c2nnc(Cl)c3ccccc23)cc1F ?
Ba CapD inh: -1.2; AID504770: 1.4

Results for Cc1ccc2nc3ccc(NCc4ccccc4)nn3c(=O)c2c1 ?
Ba CapD inh: 8.8; AID504770: 1.8

Results for Cc1nc(C(F)(F)F)ccc1C(=O)NN ?
Ba CapD inh: 0.045

How did CCOCC(=O)N1CCC(Cc2ccccc2)CC1 do in these assays?
Ba CapD inh: -0.67; AID504770: -0.55

Results for Cc1ccc(OCC(=O)Nc2cccc(-c3nc4ccccc4c(=O)o3)c2)cc1 ?
Ba CapD inh: 0.36; AID504770: 0.5

How did Cc1c(C(=O)NCCCc2ccccc2)oc2c1-c1[nH]ncc1CC2 do in these assays?
Ba CapD inh: 0.52; AID504770: -1.2

Results for COc1ccc(C)cc1CSc1nnc(-c2cccs2)n1C1CC1 ?
AID504770: 0

What do the screens show for `Cc1oc2ncn(C)c(=O)c2c1C(=O)O`?
AID504770: 0.35

Results for C=C1C(C(=O)N2CCN(c3ccccc3)CC2)C1C(=O)N1CCN(c2ccccc2)CC1 (configuration not stated) ?
AID504770: 0.4

Results for O=C(Cc1ccc(-n2c(=O)c3ccccc3n(CC(=O)NCc3ccco3)c2=O)cc1)NCC1CCCO1 (configuration not stated) ?
Ba CapD inh: 1; AID504770: 1

13 compounds from above, arranged by formula weight, low to high.
What do the screens show for `Cc1oc2ncn(C)c(=O)c2c1C(=O)O`?
AID504770: 0.35

Results for Cc1nc(C(F)(F)F)ccc1C(=O)NN ?
Ba CapD inh: 0.045

How did CCOCC(=O)N1CCC(Cc2ccccc2)CC1 do in these assays?
Ba CapD inh: -0.67; AID504770: -0.55

Results for Cc1ccc(-c2nc(-c3ccccn3)no2)c(Cl)c1 ?
Ba CapD inh: 0.52; AID504770: -0.6

Results for Cc1ccc(C(=O)CSc2nc(C)cc(=O)[nH]2)cc1 ?
Ba CapD inh: -0.41; AID504770: -1.4

Results for Fc1ccc(-c2nnc(Cl)c3ccccc23)cc1F ?
Ba CapD inh: -1.2; AID504770: 1.4

What do the screens show for `CC(O)c1nc2ccccc2n1C/C=C/c1ccccc1` (configuration not stated)?
Ba CapD inh: 0.035; AID504770: 0.05

How did CCCCn1c(=O)[nH]c2nc3cc(N(C)C)ccc3nc2c1=O do in these assays?
Ba CapD inh: -0.77; AID504770: 2

Results for COc1ccc(C)cc1CSc1nnc(-c2cccs2)n1C1CC1 ?
AID504770: 0

Results for C=C1C(C(=O)N2CCN(c3ccccc3)CC2)C1C(=O)N1CCN(c2ccccc2)CC1 (configuration not stated) ?
AID504770: 0.4

How did O=C(Cn1c(=O)n(CC(=O)NC2CCCC2)c(=O)c2ccccc21)Nc1ccc(F)cc1 do in these assays?
Ba CapD inh: -0.18; AID504770: 0.9

Results for COc1ccc(C2SCC(C(=O)NC3CCCCCC3)N2C(=O)Nc2ccc(C)c(C)c2)cc1 (configuration not stated) ?
Ba CapD inh: 16; AID504770: 0.2

How did COC(=O)C(NC(=O)c1ccc(OC)cc1)(Nc1sc2c(c1C#N)CCC(C(C)(C)C)C2)C(F)(F)F (configuration not stated) do in these assays?
Ba CapD inh: 0.03

(continued)
How did O=S1(=O)CC(O)C(N2CCN(Cc3ccccc3)CC2)C1 (configuration not stated) do in these assays?
AID504770: -3.7

What do the screens show for `CC1CCCN(S(=O)(=O)c2cccc(-c3cn4cccnc4n3)c2)C1` (configuration not stated)?
Ba CapD inh: 46; AID504770: 1.2

How did O=S(=O)(NNC1=NCCCCC1)c1ccccc1 do in these assays?
AID504770: 0.15

How did CNC(=S)N(Cc1ccc(S(N)(=O)=O)cc1)CC(F)(F)F do in these assays?
AID504770: -1.1

Results for CCOC(=O)C1=NN(c2ccc(C)cc2)C2C(=O)N(c3ccc(Cl)cc3)C(=O)C12 (configuration not stated) ?
Ba CapD inh: 1.6; AID504770: -0.6

What do the screens show for `CNc1nn2nnnc2c2ccccc12`?
Ba CapD inh: -0.16; AID504770: 0.3

What do the screens show for `CCc1cccc(NC(=O)CCc2nc(-c3ccc(C)cc3)no2)c1`?
Ba CapD inh: -1.1; AID504770: 0.1

What do the screens show for `CCN(CC)c1ccc2cc(-c3nc(-c4ccc(Cl)cc4)cs3)c(=Nc3cccc(OC)c3)oc2c1`?
Ba CapD inh: -0.27

How did Oc1c(Cl)cc(Cl)cc1/C=N/c1nc2c(s1)CCCC2 do in these assays?
Ba CapD inh: -0.43; AID504770: 0.75

How did COc1ccc(/C=C2/C(=O)CNC2=O)cc1 do in these assays?
Ba CapD inh: 0.37; AID504770: -0.15

How did Cc1ccc(S(=O)(=O)CCc2nc3ccccc3n2CC(=O)O)cc1 do in these assays?
Ba CapD inh: -0.56; AID504770: -0.35

How did CC1=C(C(=O)OC2CCCC2)C(c2cc3c(cc2Cl)OCO3)C2=C(CCCC2=O)N1 (configuration not stated) do in these assays?
Ba CapD inh: 23; AID504770: -0.1

How did COc1ccc(C(=O)Nc2ccc(N3CCN(S(C)(=O)=O)CC3)cc2)cc1OC do in these assays?
Ba CapD inh: 1.1; AID504770: -0.35

What do the screens show for `O=c1ccc2cc(S(=O)(=O)Nc3ccccn3)ccc2o1`?
Ba CapD inh: -0.49; AID504770: 1.9

How did CC(=O)Nc1ccc(/C=N/n2cc(-c3ccccc3)[nH]c2=S)cc1 do in these assays?
AID504770: 0.25

What do the screens show for `COc1cc2c(cc1OC)C(C)N(C(=O)c1ccccc1)CC2` (configuration not stated)?
Ba CapD inh: 0.81; AID504770: 2.2

What do the screens show for `Cc1cccc(C)c1NC(=O)C(C)Sc1n[nH]c(-c2ccncc2)n1` (configuration not stated)?
AID504770: -0.5

What do the screens show for `Cc1ccc(N2N=NC3CCC(C4=CCCC4)C32N2CCOCC2)cc1Cl` (configuration not stated)?
AID504770: -0.55

How did C=CCNC(=O)c1cc(C2CC2)on1 do in these assays?
Ba CapD inh: -0.43; AID504770: -0.75

Results for CCCCn1c(N)c(S(=O)(=O)c2ccccc2)c2nc3ccccc3nc21 ?
AID504770: -0.4

What do the screens show for `COc1ccc(NC(=O)/C=C2\SC(=O)NC2=O)cc1`?
AID504770: -0.45

Results for CON(C)c1nc(OCCNC(=O)COc2ccc(Cl)cc2C)nc(N(C)C)n1 ?
Ba CapD inh: -0.1

Results for O=C(Nc1ccc2ccccc2c1)C1CCCN1C(=O)OCC1CCCN(Cc2ccc3ccccc3c2)C1 (configuration not stated) ?
Ba CapD inh: -0.66

How did CCOC(=O)c1oc2ccc3nc(N(C)C)sc3c2c1C do in these assays?
Ba CapD inh: 0.73; AID504770: -1.4

Results for Cc1cc(C)nc(SCc2cn3ccccc3n2)n1 ?
Ba CapD inh: 0.83; AID504770: 2.5

What do the screens show for `CC1CC(=O)N(C)c2ccccc2S1` (configuration not stated)?
AID504770: 0.35

Results for COCCn1c(=NC(=O)CSCC(=O)N2CCc3ccccc32)sc2cc(OC)ccc21 ?
Ba CapD inh: 4.7; AID504770: -0.15

What do the screens show for `CCOc1ccc(C2=NN3C(C2)c2cc(Cl)ccc2OC3c2ccccc2OCC)cc1` (configuration not stated)?
Ba CapD inh: 1.9

How did COc1nc2nonc2nc1Nc1ccc(C)cc1 do in these assays?
Ba CapD inh: -0.39; AID504770: 0.1

How did O=C1c2ccccc2C(=O)N1CCCCSc1nnc2ccccn12 do in these assays?
AID504770: -0.05
